NPYLR7 agonist – activates Aedes aegypti NPYLR7 receptor; HEK293T NPYLR7/Galpha15, GCaMP6s calcium fluorescence; activation, % at 10 µM; 270,000 compounds, 0.15% hits; in the data active means activation above about 40%;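 further: 0% = vehicle and 100% = reference agonist at the receptor; some compounds past the cut are filed as inactive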
NPYLR7 agonist max-min – also measured in NPYLR7 agonist; calls as there; activation, %; measured here: Max-Min RFU normalised activation; some inactives read as strong as hits;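 span of the calcium signal over five minutes; 0% = vehicle and 100% = native peptide agonist; compound fluorescence can raise it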
The depositor's hits bear a star; & = joins results of further samples.

SMILES | NPYLR7 agonist | NPYLR7 agonist max-min
CNC(=O)Cn1cnc2c1c(=O)[nH]c(=O)n2C | 2.2 | 7.3
COc1ccc(-c2ccc(=O)n(CCNC(=O)Nc3ccc(F)c(F)c3)n2)cc1 | -4.7 | -4.6
CN(CCC1CCCCO1)C(=O)c1ccc(CSc2ncn[nH]2)o1 (stereo not drawn) | 1.9 | 0.8
COc1cccc(Nc2nc(NCCC(C)C)nc3c2cnn3-c2ccccc2)c1 | 2.1 | 0.0
CC(=O)c1ccc(N2C(=O)CC(N3CCN(c4ccccc4Cl)CC3)C2=O)cc1 (stereo not drawn) | 3.8 | 1.4
O=C(CN(C(=O)Nc1ccc(C(F)(F)F)cc1)C1CC1)N1CC(=O)N(c2ccc(Cl)cc2)C1 | 1.8 | 9.2
CN(CC(=O)Nc1sc2c(c1C#N)CCC2)Cc1ccsc1 | 4.0 | -0.8
CSc1ccc(CNC(C)c2cnc(-c3ccncc3)nc2C)cc1 (stereo not drawn) | 19.2 | 7.3
COC(=O)[C@@H]1[C@H](C(=O)N(C)CCc2ccc(OC)c(OC)c2)[C@@H]2C=C[C@H]1C2 | -8.9 | -14.8
CCc1nnc(-c2cc3ccccc3n2CC(=O)Nc2ccc(OC)cc2)o1 | 15.1 | 13.4
CC1CCN(CC(=O)N2N=C(c3ccccc3Cl)CC2c2cccc(F)c2)CC1 (stereo not drawn) | 16.8 | 16.7
COc1ccccc1-c1cc(C(=O)N2CCCCC2)n2nc(C(C)(C)C)cc2n1 | -10.6 | -11.1
CC(C(=O)NCc1cccnc1-n1ccnc1)n1cnc2ccccc21 (stereo not drawn) | 9.3 | 8.3
COC(=O)C1=C(C)N=c2s/c(=C\c3cccc([N+](=O)[O-])c3)c(=O)n2C1c1cccs1 (stereo not drawn) | -13.0 | -16.4
COc1ccc(OC)c(NC(=O)N2CCc3ccccc3C2c2ccccc2Cl)c1 (stereo not drawn) | 6.3 | 2.8
CSc1nnc(SCCn2c([N+](=O)[O-])cnc2C)s1 | 4.1 | 3.7
c1ccc(-n2nc(SCc3nc4ccccc4o3)nc2C2CC2)cc1 | 0.2 | 3.9
CCC(C#N)S(=O)(=O)Nc1ccccc1F (stereo not drawn) | 2.0 | -7.0
O=C(Nc1nc(-c2ccccc2)cs1)OCC(F)(F)F | 3.9 | 1.4
O=C(O)CN1C(=O)C2CC=CCC2C1=O (stereo not drawn) | 7.6&2.2 | 4.9&0.0

Copied from the list:
Reading for CN(CCC1CCCCO1)C(=O)c1ccc(CSc2ncn[nH]2)o1 (stereo not drawn) in NPYLR7 agonist max-min: 0.8
Reading for CC(C(=O)NCc1cccnc1-n1ccnc1)n1cnc2ccccc21 (stereo not drawn) in NPYLR7 agonist max-min: 8.3
Reading for O=C(Nc1nc(-c2ccccc2)cs1)OCC(F)(F)F in NPYLR7 agonist max-min: 1.4

6 compounds already listed, arranged by molecular weight, ascending:
SMILES | NPYLR7 agonist | NPYLR7 agonist max-min
CNC(=O)Cn1cnc2c1c(=O)[nH]c(=O)n2C | 2.2 | 7.3
CCC(C#N)S(=O)(=O)Nc1ccccc1F (stereo not drawn) | 2.0 | -7.0
c1ccc(-n2nc(SCc3nc4ccccc4o3)nc2C2CC2)cc1 | 0.2 | 3.9
CN(CCC1CCCCO1)C(=O)c1ccc(CSc2ncn[nH]2)o1 (stereo not drawn) | 1.9 | 0.8
CC(=O)c1ccc(N2C(=O)CC(N3CCN(c4ccccc4Cl)CC3)C2=O)cc1 (stereo not drawn) | 3.8 | 1.4
O=C(CN(C(=O)Nc1ccc(C(F)(F)F)cc1)C1CC1)N1CC(=O)N(c2ccc(Cl)cc2)C1 | 1.8 | 9.2

Further results follow:
SMILES | NPYLR7 agonist | NPYLR7 agonist max-min
CCOc1cc(C=O)c(Br)cc1OC1CCCC1 | -0.6 | -0.6
CCOC(=O)c1nn(-c2ccccc2C)c(=O)cc1OCC(=O)Nc1ccc(C)c(Cl)c1 | 9.2 | 4.4
CC1(C)CC2CC(C)(CN2C(C(=O)N2CCCN(Cc3ccccc3)CC2)c2ccccc2)C1 (stereo not drawn) | -0.8 | -4.4
COCc1ccccc1NC(=O)NC(c1ccccc1)c1ccncc1 (stereo not drawn) | -7.1 | -6.7
CC(C)c1c(C(=O)O)cnn1-c1ccc(Cl)cc1 | -4.5 | -14.4
CCCCc1ccc(-n2c(C)c(C)n3c4c(=O)n(CC(=O)OCC)c(=O)n(C)c4nc23)cc1 | 8.6 | 5.9
O=C(c1cscn1)N1CC[C@@H](c2ccc3ccccc3c2)[C@H](O)C1 | -1.3 | 7.9
O=C(CSc1ccc2nnc(-c3ccncc3)n2n1)Nc1ccc(C(F)(F)F)cc1 | -2.7 | -2.5
Clc1cccc2c1CCC2NCc1cc(Br)c2c(c1)OCO2 (stereo not drawn) | 9.8 | 8.7
CCNC(=O)N(Cc1cccc(F)c1)CC1CC(c2ccc(Cl)c(Cl)c2)=NO1 (stereo not drawn) | 8.4 | 17.2
O=C(NCCNCCO)c1c(O)c2c([nH]c1=O)CCCC2 | 8.9 | 5.8
CN(C(C1CC1)C1CC1)S(=O)(=O)c1cnn(-c2ccccc2)c1 | 2.1 | -1.5
CC(=O)N1CCCC(OCc2cccc(C(F)(F)F)c2)C1 (stereo not drawn) | -2.2 | 3.4
COc1ccc(C2CCCCCN2CC(=O)N2CCNC2=O)cc1 (stereo not drawn) | -12.8 | -18.1
COc1ccccc1N1CCN(c2nc(Nc3ccccc3)c3nccnc3n2)CC1 | 6.6 | 10.4
O=C(COc1ccc(F)cc1)N1CCCC(Cn2ccnc2)C1 (stereo not drawn) | 1.6 | 1.2
Cc1ccc2cc(CCNC(=O)c3cccc(C(F)(F)F)c3)c(=O)[nH]c2c1 | 12.5 | 16.9
CSCCCNC(=O)c1cncn1-c1ccc(-c2cc(C(F)(F)F)cc(C(F)(F)F)c2)cc1 | 20.1 | 30.1
COc1ccccc1C(C)NC(=O)C(=O)Nc1ccc2c(c1)CCCN2C (stereo not drawn) | 10.5 | 4.8
Cc1[nH]ncc1S(=O)(=O)N1CCCC1c1cccc(N(C)C)c1 (stereo not drawn) | 7.5 | 0.6

Of the compounds above, two contain a cyano group:
SMILES | NPYLR7 agonist | NPYLR7 agonist max-min
CN(CC(=O)Nc1sc2c(c1C#N)CCC2)Cc1ccsc1 | 4.0 | -0.8
CCC(C#N)S(=O)(=O)Nc1ccccc1F (stereo not drawn) | 2.0 | -7.0

(listing goes on)
SMILES | NPYLR7 agonist | NPYLR7 agonist max-min
CC(C)Cn1c(CN2CCCC2c2ccccn2)cnc1S(C)(=O)=O (stereo not drawn) | 3.9 | 2.2
CC(C)CN1CCN(C(=O)Nc2ccc(C(F)(F)F)cc2)C(C)C1=O (stereo not drawn) | 0.5 | -1.3
O=C(NC1CCN(C2CC2)C1)c1ccc(Oc2ccc(Br)cc2)c(F)c1 (stereo not drawn) | -1.0 | 260.8
Cc1ccc(C(=O)OCc2cccc(S(=O)(=O)N3CCOCC3)c2)cc1O | -2.4 | -3.2
Cc1ccc(CN(C)C(=O)c2ccc(=O)[nH]n2)cc1 | 15.2 | 4.6
CSc1nc(=O)[nH]c(C)c1C(=O)N1CC=C(c2ccccc2)CC1 | -4.4 | -5.4
Cc1ccc(CCNC(=O)c2ccc(NC(C)C)nc2)cc1 | 11.0 | -3.9
COCCN(Cc1cnn(C)c1)c1nc(C)nc2sccc12 | 1.1 | -0.9
COC(=O)c1c(NC(=O)c2ccccc2)c2cc(NC3CCSCC3)cnc2n1Cc1ccco1 | 21.6 | 5.1
CCCc1cc(=O)[nH]c(-n2nc(C)cc2NC(=O)Cc2cccc3ccccc23)n1 | -5.0 | -5.1
COc1ccc(C(=O)N(Cc2ccco2)Cc2nc3cc(Cl)ccc3o2)c(OC)c1 | -4.8 | -13.0
Cc1ccc(Nc2cc(C)nc(N3CCN(C(=O)C(C)C)CC3)n2)cc1 | 6.1 | 1.7
Cc1ccccc1Cn1c(C(=O)N2CCC(Cc3ccccc3)CC2)cc2ccsc21 | 11.2 | 20.9
CCCCN(C)C(=O)C(CC)n1nc(C)n2c(cc3occc32)c1=O (stereo not drawn) | 8.5 | 8.2
CCOC(=O)c1cc(-c2ccc(F)cc2)n(C2CCN(S(=O)(=O)c3ccc(F)c(F)c3)CC2)n1 | 20.8 | 8.6
CCOC(=O)CCC(=O)Nc1ccc(-c2cccc(-c3cccc(OC)c3)n2)cc1 | -2.5 | -3.4
O=S(=O)(c1ccc2c(c1)nc(SCc1cccc(Cl)c1F)n2CC1CCCO1)N1CCOCC1 (stereo not drawn) | 12.6 | 1.6
Cc1ccc2nc(SCC(=O)Nc3ccc(OC(F)(F)F)cc3)nc(=O)n2c1 | 2.1 | 1.1
CC(C)/C=C/C(=O)N1CCC(N2CCC(C(=O)NC3CC3)CC2)CC1 | 2.3 | 0.6
CCN(CC)C1CCN(C(=O)c2cc(Cn3ccc4ccccc43)[nH]n2)C1 (stereo not drawn) | 17.2 | 9.4

Reprinted at random: two records from the list
SMILES | NPYLR7 agonist | NPYLR7 agonist max-min
Cc1ccc(C(=O)OCc2cccc(S(=O)(=O)N3CCOCC3)c2)cc1O | -2.4 | -3.2
COCCN(Cc1cnn(C)c1)c1nc(C)nc2sccc12 | 1.1 | -0.9

Additional records
SMILES | NPYLR7 agonist | NPYLR7 agonist max-min
O=C(/C=C/c1ccccc1)N1CCN(c2nccc(-c3ccc(Oc4ccccc4)cc3)n2)CC1 | 12.4 | -1.3
O=C(Nc1cccc2cccnc12)c1ccccc1C1CCNC1 (stereo not drawn) | 3.4 | 1.6
O=C(COc1ccccc1)Nc1ccnn1Cc1ccc(Cl)cc1 | 0.5 | 4.1
COc1cccc(OC)c1C(=O)N1CCC2(CC1)C(=O)N(CC(=O)NC1CCCCC1)CN2c1ccccc1 | -2.9 | 7.4
CCc1nc(C)nc(N2CCN(C(=O)NC(C)(C)C)CC2)c1Cc1ccccc1F | 20.5 | 17.6
Cc1c(CN2CCC(CNS(=O)(=O)C3CC3)C2)oc2ccccc12 (stereo not drawn) | -4.5 | -4.6
Cc1nccn1-c1cc(NCCNC(=O)c2ccc3c(c2)OCO3)ncn1 | -17.6 | -23.0
O=C(Nc1ccc(F)c(F)c1)N1CCSC1c1ccccc1OCc1ccccc1 (stereo not drawn) | -10.2 | -13.8
Cc1nc(COC(=O)c2cc(Cl)c3c(c2)OCCO3)n[nH]1 | -0.2 | -76.3
Cc1nc2c(C(=O)N3CCCC(c4ccn[nH]4)C3)cccc2[nH]1 (stereo not drawn) | -0.1 | 0.8
Cc1ccccc1-c1nc(CN(C)C(C)c2cccs2)c(C)o1 (stereo not drawn) | -8.2 | -12.7
Cc1ccc(-n2ncc3c(=O)n(NC(=O)COc4ccc(F)cc4)cnc32)cc1C | 0.9 | -1.4
CC(CC(=O)N1CCC(c2cn(C)c3ccccc23)CC1)CC(C)(C)C (stereo not drawn) | 30.8 | 23.6
COc1ccccc1N1CCN(C(=O)c2ccc(C(C)(C)C)cc2)CC1 | -0.2 | -1.1
Cc1cccc(C)c1NC(=O)C(c1ccccc1)N(C(=O)C1CCC(=O)N1)c1ccccc1 (stereo not drawn) | 6.0 | 3.0
COC(=O)Nc1cccc(C(=O)NCc2ncoc2-c2ccccc2)c1 | -2.3 | -3.5
Cc1c(CNCCc2nc3ccc(F)cc3[nH]2)c2ccccc2n1CC(N)=O | 0.8 | -0.9
COC(=O)c1c(C)[nH]c(C(=O)N(C)C(C)c2ccccc2)c1C (stereo not drawn) | 12.0&8.1 | 11.9&4.0
O=C(NNc1nc(-c2ccc(Cl)cc2)no1)C1CC1 | 2.5 | 46.1
CC(C)=CCC/C(C)=C/CC/C(C)=C/CC/C(C)=C/CO | 6.8 | -1.2
Cn1c(CCC(=O)N2CCCC2)nc2cc(S(=O)(=O)N3CCCCC3)ccc21 | 1.2 | 0.0
O=C(c1cc[nH]c(=O)c1)N1CCOC2(CCCC2)C1 | -6.3 | -10.9
CN1C(=O)NC(c2cccs2)C2=C1CN(Cc1cccnc1)C2=O (stereo not drawn) | -3.8 | -2.4
CCc1nn2c(ncc3c(=O)n(NC(C)=O)ccc32)c1-c1ccc(Cl)cc1 | 1.6 | 1.0
CN(C)C(=O)N1CCC(C(=O)N2CCCC(Nc3ccc4c(c3)OCCO4)C2)CC1 (stereo not drawn) | 7.1 | 7.0
Cc1nc(C)c(C(=O)OCc2cc(-c3ccc4c(c3)OCCO4)on2)s1 | 0.9 | 1.2
Nc1[nH]c(N=Nc2nc3c(s2)CCCC3)c2ccccc12 | 2.8 | 3.3
COc1ccc(OC)c(-c2nc3c(OCc4ccccc4)cccn3c2NC(C)(C)CC(C)(C)C)c1 | 9.9 | 9.4
Cc1sc2ncnc(NC3CCCCC3C)c2c1C (stereo not drawn) | 15.8 | 29.8
CCC(=O)NCCc1csc2nc(-c3cccs3)nn12 | -2.4 | -4.0
O=C(c1ccco1)N1CCN(C(C(=O)N2CCCC2)C2CCCC2)CC1 (stereo not drawn) | -8.0 | -4.8
O=C(CCc1ccccc1F)Nc1nnc(C2CC2)s1 | 0.5 | 1.0
CC(=O)Nc1cccc(-c2cc(N3CCN(CCO)CC3)n3nccc3n2)c1 | 19.1 | 2.8
COc1ccc(/C=N\NC(=O)CSc2nc3ccccc3[nH]2)c(OC)c1OC | 12.9 | 13.1
COCCCN1CCCN(C(=O)NC(C)C)CC1 | -6.4 | -8.4
O=c1[nH]cnc(O)c1C(c1ccccc1)c1c(O)nc[nH]c1=O | -0.9 | 2.4
Cc1cccc2c1C(=O)NC1(CCN(Cc3cccc(Cl)c3)CC1)N2 | 0.4 | 3.2
CCN(CC)c1onc(-c2ccccc2)c1CN(CCN(C)C)C(=O)c1ccc2c(c1)OCO2 | -0.9 | 10.0
CC(C)C(=O)Nc1cccnc1-c1cccc2[nH]ccc12 | -0.4 | 0.0
CC(=O)C1=C(c2ccccc2)OC(=N)C(C#N)C1c1cccc([N+](=O)[O-])c1 (stereo not drawn) | -2.4 | -5.3
Cc1c(Nc2nnnc3c2cnn3-c2ccccc2)c(=O)n(-c2ccccc2)n1C | 3.8 | 1.5
CC1(C(=O)O)CCN1C(=O)c1ccc2sccc2c1 (stereo not drawn) | -3.8 | -7.5
Cc1ccc(F)cc1CC(=O)NCc1cnc2c(C)cccn12 | 4.3 | 2.1

A portion of the library (hit frequency here may not be typical).
